Bm FixLJ act: B. multivorans fixK reporter activation | B. multivorans fixK-promoter GFP reporter, 18 h; hits give high values | z-score (test concentration not listed) | actives 0.3% (n = 29,000) | AID 1918990;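 active means replicate mean overnight rise in green fluorescent reporter signal, 3 or more SD over negative controls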;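 further: score is relative to vehicle wells of the plate; 300 nL library stock went into each well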
The depositor's hits bear a star. Some of the compounds tested, so the mix of outcomes need not match the whole.

Preview, three compounds:
no.	structure	Bm FixLJ act
1	COc1ccccc1N1CCN(C(=O)CCS(=O)(=O)c2cc(Br)cc3c2N(C(=O)C2CC2)CC3)CC1	0.37
2	CN(C)c1ncc(C=CC(=O)NC2(C(N)=O)CCCC2)cn1	-0.35
3	CCCCN(Cc1cc2cc(C)ccc2[nH]c1=O)C(=O)c1cccc(Cl)c1	0.89

The whole of this part (from the top)
no.	structure	Bm FixLJ act
1	COc1ccccc1N1CCN(C(=O)CCS(=O)(=O)c2cc(Br)cc3c2N(C(=O)C2CC2)CC3)CC1	0.37
2	CN(C)c1ncc(C=CC(=O)NC2(C(N)=O)CCCC2)cn1	-0.35
3	CCCCN(Cc1cc2cc(C)ccc2[nH]c1=O)C(=O)c1cccc(Cl)c1	0.89
4	CC(C)c1ccc(C2N=C(N)Nc3nc4ccccc4n32)cc1 (stereo not drawn)	-0.03
5	COc1cccc(CNC(=O)c2ccc3c(Cl)c4c(nc3c2)CCCC4)c1	0.5
6	COc1ccc(C(=O)NCc2nc3ccccc3o2)cc1N1CCOCC1	1.63
7	O=C(Nc1cccc(Cl)c1Cl)c1cc2nc(-c3ccc4c(c3)OCO4)cc(C(F)(F)F)n2n1	0.51
8	CC1CCCN(S(=O)(=O)c2ccc3c(c2)CCN3C(=O)CCC(=O)O)C1 (stereo not drawn)	-1.18
9	Cc1c2cnn(CC(=O)N3CCCCC3)c(=O)c2c(C)n1Cc1ccc(Cl)cc1	-1.08
10	COc1ccccc1CNC(=O)CCn1c(=O)c2ccccc2n(CC(=O)Nc2ccc(C)cc2)c1=O	-1.77
11	Cc1cc(=O)[nH]c(CCNC(=O)c2ccccc2OCc2ccccc2)n1	-1.79
12	CS(=O)(=O)N1CCCn2nc(CNC(=O)C3CCc4ccccc43)cc2C1 (stereo not drawn)	0.28
13	Cc1c(C2=CCN(S(=O)(=O)c3ccc(Br)cc3)CC2)c2ccccc2n1CC(=O)N1CCCC1	-0.99
14	COc1cc(OC)cc(-c2cc3nc(C)c(CCC(=O)NCc4ccccc4)c(C)n3n2)c1	-0.74
15	COc1ccc(-c2noc(CCC(=O)NCc3ccc(OC)cc3OC)n2)cc1	-0.96
16	Cc1ccc(NC(=O)Cn2c(=O)n(-c3ccc(C)cc3)c(=O)c3ccc(C(=O)NCc4ccccc4Cl)cc32)cc1	-0.22
17	COc1ccc(NC(=O)C(CC(C)C)NC(=O)C2CCCCC2)cc1 (stereo not drawn)	-0.9
18	c1cc(-c2ccc(-c3nccn3CCc3noc(C4CC4)n3)o2)[nH]n1	0.26
19	COc1ccc(CNC(=O)Cn2ncc3c(=O)oc4ccccc4c32)c(OC)c1	0.17
20	Oc1ccccc1-c1nc(-c2cccs2)c(-c2cccs2)[nH]1	-3.19
21	Cc1ccc(N(CC(=O)NCCSc2ccccc2)S(=O)(=O)c2ccc(F)cc2)cc1	1.6
22	COc1ccc(C(=O)N2CCC(C(=O)Nc3ccc(OC)cc3OC)CC2)cc1	-2.83
23	CCCCSc1nnc2c(n1)OC(c1ccc(C)s1)Nc1ccccc1-2 (stereo not drawn)	-1.59
24	CNC(=O)c1noc(CN2CCCC(CCc3ccccc3F)C2)n1 (stereo not drawn)	0.64
25	CCn1cc(C(=O)N(C)Cc2ccccc2)c(=O)c2cc(S(=O)(=O)N3CCCCC3)ccc21	-0.93
26	O=c1c2sc3ccccc3c2n(Cc2ccccc2F)c(=O)n1-c1ccccc1Cl	-0.33
27	CC(C)NC(=O)c1ccc(CSc2nc3ccncc3n2Cc2cccc(F)c2)cc1	-4.71
28	O=C(NCCC(=O)N1CCc2[nH]cnc2C1c1cccnc1)c1ccc(F)cc1 (stereo not drawn)	0.29
29	COc1ccc2oc(-c3ccc(NC(=O)c4ccc(Cl)cc4Cl)cc3)nc2c1	0.99
30	C[C@H]1O[C@@H](O[C@H]2[C@@H](O)C[C@H](O[C@H]3[C@@H](O)C[C@H](O[C@H]4CC[C@]5(C)C6C[C@@H](O)[C@]7(C)[C@@H](C8=CC(=O)OC8)CC[C@]7(O)C6CC[C@@H]5C4)O[C@@H]3C)O[C@@H]2C)C[C@H](O)[C@@H]1O (stereo partly drawn)	0.49
31	COc1cc(NC(=O)Cn2ccc3ccccc3c2=O)cc(OC)c1OC	0.59
32	COc1ccc(C(=O)COC(=O)c2cccc(NC(=O)c3ccc(OC)c(OC)c3)c2)cc1	1.01
33	CCN(C(=O)c1cc2c(=O)oc3ccccc3c2s1)c1ccc(C)c(C)c1	-2.05
34	COc1cccc(-n2c(/C=C\c3ccc(Cl)cc3)nc3ccccc3c2=O)c1	0.01
35	Cc1ccc(S(=O)(=O)Nc2cc3c(cc2Cl)n(C)c(=O)c(=O)n3C)cc1	-0.78
36	Cc1ccc(N2CC(C(=O)Nc3ccc(Cl)cc3Cl)CC2=O)cc1 (stereo not drawn)	-1.89
37	Clc1ccc(-c2ccc(CNCCSc3nnnn3-c3ccccc3)o2)cc1	-0.24
38	CCOC(=O)c1ccc(NC(=O)C(Cc2ccccc2)NS(=O)(=O)c2ccc(Br)s2)cc1 (stereo not drawn)	-0.06
39	CN(C)S(=O)(=O)CC1CN(C(=O)c2cccnc2SCCc2ccccc2)CC1O (stereo not drawn)	0.53
40	Cc1ccc(-c2nc(-c3cc4c([nH]c3=O)CC(C)(C)CC4=O)sc2C)cc1	-0.02

Quoted at random: three compounds from above.
no.	structure	Bm FixLJ act
33	CCN(C(=O)c1cc2c(=O)oc3ccccc3c2s1)c1ccc(C)c(C)c1	-2.05
34	COc1cccc(-n2c(/C=C\c3ccc(Cl)cc3)nc3ccccc3c2=O)c1	0.01
40	Cc1ccc(-c2nc(-c3cc4c([nH]c3=O)CC(C)(C)CC4=O)sc2C)cc1	-0.02

The results go on.
no.	structure	Bm FixLJ act
41	COc1ccccc1C(=O)n1nc(-c2cccnc2)nc1NCc1ccccc1	-3.78
42	CCOC(=O)c1ccc(NC(=O)CC2C(=O)N(c3ccc(C)cc3)C(=O)N2C2CCCCC2)cc1 (stereo not drawn)	-1
43	CCc1ccc(N2C(=O)CC(c3cc(OC)ccc3OC)C3=C2COC3=O)cc1 (stereo not drawn)	-4.18
44	Cc1nc2c(C(=O)NCCc3ccccc3)c[nH]n2c(=O)c1Cc1ccccc1F	-0.93
45	COc1cccc(C2C(C(=O)Nc3ccccc3)=C(C)Nc3nc(-c4ccccc4)nn32)c1 (stereo not drawn)	-3.21
46	O=C(CSc1oc(-c2ccccc2)nc1S(=O)(=O)c1ccccc1)c1ccccc1	0.61
47	Cc1nnsc1CNC(=O)Cc1c(C)[nH]c2c(C)ccc(C)c12	-0.11
48	CN(Cc1cc(C2CC2)on1)C(=O)NCCSc1nc2ccccc2o1	-3.26
49	Cc1ccc2c(c1)-c1nc(-c3ccc4c(c3)NC(=O)CO4)cc(-c3ccc(F)cc3)c1CO2	0.53
50	COCCCNC(=O)c1cc2c(s1)CCOC21CCN(C(=O)CN)CC1	-0.19
51	CCOC(=O)C1CCN(c2cc3c(cc2NC(=O)c2ccccc2Cl)n(C)c(=O)n3C)CC1	-1.36
52	Cc1ccc(-n2nc(C(=O)Nc3ccc(F)cc3F)c3c4ccccc4n(C)c3c2=O)cc1	-0.65
53	CSCCC(NC(C)=O)C(=O)NCc1ccc2c(c1)OCCCO2 (stereo not drawn)	0.75
54	CCC(=O)N1CCc2cc(S(=O)(=O)NC(C(=O)NCCc3ccc(Cl)cc3)C(C)C)ccc21 (stereo not drawn)	-0.36
55	COc1cc(CN(C(=O)c2ccc(C)cc2)C2CCS(=O)(=O)C2)cc(OC)c1OC (stereo not drawn)	-2.03
56	COc1ccc(C2CC(=O)Nc3c2c(=O)[nH]c2nc4ccccc4n32)cc1 (stereo not drawn)	-0.19
57	O=C(NCc1cccc(Cl)c1)C1CCN(C(=O)c2sccc2-n2cccc2)CC1	-1.24
58	Cc1noc(C)c1S(=O)(=O)N(CC(=O)Nc1ccc(F)cc1F)c1ccc(C(C)C)cc1	0.48
59	CSc1ccc(CCNC(=O)c2cnn(-c3ccccc3)c2-n2cccc2)cc1	1.07
60	O=C1CCC2(CCN(C(=O)c3cccc(O)c3)CC2)CN1CCc1ccncc1	-1.29
61	COc1ccc(OC)c(C(C)NC(=O)c2cnc(-c3ccccn3)[nH]c2=O)c1 (stereo not drawn)	-1.53
62	CCc1nc(C)sc1CNC(=O)C1CNCC(C(=O)N2CCOCC2)C1 (stereo not drawn)	-0.31
63	O=C(CN1CCN(Cc2ccccc2Cl)C1=O)NCCc1ccc(Cl)cc1	-1.89
64	COCCCNC(=O)CCc1c(C)nc2nc(-c3cc(OC)cc(OC)c3)nn2c1C	-0.67

Four of the compounds above, as labelled records:
#60 O=C1CCC2(CCN(C(=O)c3cccc(O)c3)CC2)CN1CCc1ccncc1
  Bm FixLJ act = -1.29

#64 COCCCNC(=O)CCc1c(C)nc2nc(-c3cc(OC)cc(OC)c3)nn2c1C
  Bm FixLJ act = -0.67

#58 Cc1noc(C)c1S(=O)(=O)N(CC(=O)Nc1ccc(F)cc1F)c1ccc(C(C)C)cc1
  Bm FixLJ act = 0.48

#63 O=C(CN1CCN(Cc2ccccc2Cl)C1=O)NCCc1ccc(Cl)cc1
  Bm FixLJ act = -1.89

Going on with the list.
no.	structure	Bm FixLJ act
65	CCC(Sc1ncnc2sc3c(c12)CCCC3)C(=O)OCC(C)C (stereo not drawn)	0.38
66	Cc1nc2c(-c3ccccc3)c(C)nn2c(C)c1CCC(=O)NCc1ccccc1Cl	-0.72
67	CCCCSc1nnc2n(-c3ccc(OC)cc3)c(=O)c3c4c(sc3n12)COC(C(C)C)C4 (stereo not drawn)	-2.69
68	Cc1nc2c(C(=O)NCCc3ccc(Cl)cc3)c[nH]n2c(=O)c1Cc1ccccc1F	-2.22
69	Cn1c(=O)n(C)c2cc(N3CCOCC3)c(NC(=O)c3c(F)cccc3F)cc21	-2
70	COc1ccc(NC(=O)CCc2nc3cccnc3n2-c2ccccc2)cc1Cl	-0.83
71	Cc1c(O)nc(SCC(=O)Nc2ccc(Cl)cc2Cl)n(-c2ccc(F)cc2)c1=O	-1.66
72	c1ccc(CCc2n[nH]c(CN3CCOc4ccccc4C3)n2)cc1	-1.74

Continuation:
cpd	mol	Bm FixLJ act
73	CC(C)c1ccc(NS(=O)(=O)c2ccc3nc(-c4ccccc4)[nH]c3c2)cc1	-0.7
74	CCN1CCN(Cc2c(O)ccc3oc(C)c(C(=O)Nc4ccc(OC)cc4)c23)CC1	-0.58
75	COc1ccccc1-c1cc(C(F)(F)F)nc(S(=O)(=O)CCCC(=O)Nc2cc(OC)c(OC)c(OC)c2)n1	-1.3
76	Cc1cc(Br)ccc1NC(=O)Cn1cc(S(=O)(=O)N2CCN(c3ccccc3F)CC2)c2ccccc2c1=O	-0.62
77	CCCCOc1ccc(-c2nn(-c3ccccc3)cc2C2NC(=O)NC(C)=C2C(=O)OCC)cc1 (stereo not drawn)	-0.1
78	CCc1ccccc1NC(=O)Cn1nc(C(F)(F)F)c2c1CCC2	-0.86
79	COc1ccc(CCNC(=O)Cn2nc(C)n3c(cc4cc(F)ccc43)c2=O)cc1OC	1.61
80	O=C(O)c1cccc(NC(=O)c2cc3cc(Br)cc(Br)c3oc2=O)c1	0.36
81	Cc1ccc(NC(=O)CSc2nc(=O)cc(N)n2CCc2ccccc2)cc1	-3.61
82	CCC1CCCCN1CC(=O)N1CCCc2c1c(=O)oc1ccc(OCc3ccccc3)cc21 (stereo not drawn)	-1.01
83	CCn1c(NCc2ccc(OC)c(OC)c2)nc2ccccc21	-1.59
84	O=C(Cn1c(=O)oc2cc(S(=O)(=O)N3CCCCCC3)ccc21)Nc1ccc(F)cc1F	-3.19
85	CCCCN(CC)CCCNC(=O)Cn1ncc2c3ccccc3n(Cc3ccccc3F)c2c1=O	-1.62
86	COc1cc2nc(NCCc3ccc(Cl)cc3)n3nc(-c4ccccc4)nc3c2cc1OC	-0.01
87	COc1ccc(Nc2nc(C)nc(N)c2S(=O)(=O)c2ccccc2)cc1	-0.64
88	CCOc1ccc(C(=O)Nc2cc(-c3nc4ccccc4o3)ccc2C)cc1Cl	-0.87
89	CCOC(=O)N[C@H](Cc1c[nH]c2ccccc12)C(=O)Nc1cccc(Cl)c1	-0.47
90	Cc1ccc(OCC2CCCN(C(=O)c3cnc(C(C)C)nc3)C2)cc1 (stereo not drawn)	1.91
91	CC(=O)Nc1ccc(-n2c(CCC(=O)O)ccc2-c2ccc(Br)cc2)cc1	-0.1
92	Cc1ccc(-n2nc(C(=O)N3CCN(c4cccc(C(F)(F)F)c4)CC3)c3c4ccccc4n(C)c3c2=O)cc1	1.01
93	CCc1nc(C)cc(N2CCCC(C(=O)c3cccnc3)C2)n1 (stereo not drawn)	-2.04
94	CCOc1ccccc1NC(=O)Cn1c(=O)n(Cc2ccccc2)c(=O)c2c3c(sc21)CN(C(C)=O)CC3	-0.88
95	COc1ccc(Cl)cc1NC(=O)CN1C(=O)CN=C(c2ccccc2)c2cc(Cl)ccc21	-0.23
96	CS(=O)(=O)OCCCCOS(C)(=O)=O	-0.06
97	NC(=O)CSc1nc2c(oc3ccccc32)c(=O)n1Cc1ccccc1	-0.94
98	O=C(NCc1nc2c(s1)CCCC2)Nc1ccc(N2CCCC2=O)cc1	0.66
99	COc1cccc(C2CC(=O)Nc3cc4c(cc32)OCO4)c1OC(C)C (stereo not drawn)	0.06
100	CCCNC(=O)CN1C(=O)COc2ccc(S(=O)(=O)N3CCC(C)CC3)cc21	0.12
101	c1cnc2c(-c3nccn3-c3ccc(OCC4CCCO4)cc3)cnn2c1 (stereo not drawn)	-1.46
102	CNc1oc(/C=C/c2cc(OC)c(OC)c(OC)c2)nc1C#N	-1.27
103	CCOc1ccccc1NC(=O)CSc1nnc(N)s1	-0.74
104	COc1cccc(C(=O)Oc2c(Sc3ccc(C)cc3)c(C)nn2C(C)(C)C)c1OC	1.37
105	CCC1=Nc2cc(C(=O)NCCc3ccc(OC)c(OC)c3)ccc2Sc2ccccc21	-0.25
106	Cn1c(=O)c2c(ncn2CC(O)CO)n(C)c1=O (stereo not drawn)	-0.78
107	CCOC(=O)c1c(NC(=O)COc2cc(C)ccc2C(C)C)sc(C)c1C	-0.34
108	Cc1cccc2c1-c1sc(C(=O)NCCCN3CCN(c4cccc(Cl)c4)CC3)cc1CO2	1.91
109	CCCCNC(=O)CN(C)S(=O)(=O)c1ccc(O)c(C(=O)O)c1	0.51
110	COC1CN(C(C)C)CC1NC(=O)CCCN1CCOCC1 (stereo not drawn)	-0.09
